Rango-impB inh: prevents formation of the Rango-importin beta complex; Rango CFP/YFP FRET sensor + importin beta, 45 min; Potency, µM (top dose mostly 92.2 µM), for inactives: at the highest dose inhibition of complex formation; 0.031% of 340,000 active; AID 540263; active = rising FRET ratio curve, often small or poorly fitted; inconclusive = mostly compound fluorescence or quenching in the first reads; inactive = flat curves in all reads;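 also: potency is read from the fitted curve at half-maximal effect; 0% = DMSO wells and 100% = buffer wells lacking importin beta; nearly all actives have a fitted effect of over 15% in size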
Target sequence (Q14974 whole entry, looked up): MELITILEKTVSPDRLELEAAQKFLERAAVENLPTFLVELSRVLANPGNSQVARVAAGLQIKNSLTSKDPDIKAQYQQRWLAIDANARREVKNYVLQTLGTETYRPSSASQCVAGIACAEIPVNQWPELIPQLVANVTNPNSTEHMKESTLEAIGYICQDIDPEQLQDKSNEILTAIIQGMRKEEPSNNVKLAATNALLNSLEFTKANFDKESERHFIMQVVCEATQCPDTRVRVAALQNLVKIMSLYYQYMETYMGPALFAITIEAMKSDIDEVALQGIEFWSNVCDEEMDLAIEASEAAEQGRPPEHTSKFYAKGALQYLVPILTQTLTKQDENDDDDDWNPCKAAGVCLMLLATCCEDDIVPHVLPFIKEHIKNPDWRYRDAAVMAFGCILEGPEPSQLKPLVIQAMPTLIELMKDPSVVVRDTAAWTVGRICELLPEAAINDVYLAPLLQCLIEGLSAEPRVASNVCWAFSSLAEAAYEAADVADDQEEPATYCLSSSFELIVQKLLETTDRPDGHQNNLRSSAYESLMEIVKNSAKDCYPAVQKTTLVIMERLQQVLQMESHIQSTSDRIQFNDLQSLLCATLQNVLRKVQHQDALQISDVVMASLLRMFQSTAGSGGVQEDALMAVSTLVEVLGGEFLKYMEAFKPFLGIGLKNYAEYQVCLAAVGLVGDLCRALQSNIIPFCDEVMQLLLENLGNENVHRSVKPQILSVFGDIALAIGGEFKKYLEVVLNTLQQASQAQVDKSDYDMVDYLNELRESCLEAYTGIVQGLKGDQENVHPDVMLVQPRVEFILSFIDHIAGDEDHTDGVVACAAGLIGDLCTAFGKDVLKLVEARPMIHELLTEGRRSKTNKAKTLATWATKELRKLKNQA
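Inhibition scored from the CFP 486 nm/YFP 530 nm FRET ratio 45 min after adding 0.125 microM importin beta to 50 nM Rango biosensor preincubated 5 min with compound (room temperature, PBS with DTT, Tween-20, BSA). No-importin wells as positive control.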
miR-21 reporter: raises the signal of a miR-21 reporter. 340,000 tested, under 10 active. HeLa miR-21 FLuc reporter, luciferase, 48 h. Potency, µM (top dose mostly 38.3 µM), inactives show top-dose reporter change, positive = more light; active = well fitted rising curve with a large enough effect; inconclusive = small, poorly fitted or top-dose-only effect; inactive = no such curve, though single readings can be large or run the other way;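 also: % of control where 0% means no effect; miR-21 action dims this reporter so a rising signal means less miR-21 action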
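HeLa miR-21-FLuc reporter line, endogenous miR-21; 2000 cells/well in DMEM/10% FBS; compound titration up to ~40uM final, 48 h, 37 degree Celsius; luciferase detection reagent, 15 min lysis, CCD luminescence.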
Rango dissoc inh: prevents RanGTP from dissociating the Rango-importin beta complex. O95149+P62826. Biochemical FRET Rango-importin beta, RanGTP-induced dissociation. Potency, µM (series often up to 46.1 µM), for inactives: top-dose activity change, negative = inhibition. 0.071% of 340,000 active. AID 540253; active means falling FRET ratio curve, often poorly fitted, with flat reads before Ran was added; inconclusive means other falling curves, or compound fluorescence or quenching; inactive means flat or rising ratio curve;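 also: potency is read from the fitted curve at half-maximal effect; % of control where 0% means no effect; nearly all actives have a fitted effect of over 45% in size; -100% = wells without RanGTP and RCC1; the record marks most hits as doubtful in a second field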
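FRET read at 45 min, room temperature: inhibitors block the CFP/YFP signal rise when RanGTP (0.6 uM Ran, 2 mM GTP, 0.2 uM RCC1) frees Rango (0.1 uM) from importin beta (0.25 uM). Pre-read after 5 min compound exposure flags interference.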
GLA inh pH 4.5: inhibitors of human alpha-galactosidase A at pH 4.5; purified enzyme, 4-MU-alpha-Gal fluorescence, pH 4.5; activity change, negative = inhibition, % at 105 µM; 230,000 tested, under 10 active; P06280; AID 1467; inconclusive = small, poorly fitted or top-dose-only inhibition, or a rising curve; inactive = flat fitted curve, though single readings scatter; no compound was filed as active;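 also: 0% = full activity with enzyme and -100% = basal without enzyme; dose as in the result columns while the protocol names 77 µM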
Numbers without * were called inactive; u = inconclusive; x = not tested or not shown. Not all compounds are listed; the hit share may differ from the screen's.

(1) CN(C)S(=O)(=O)c1ccc(N2C(=O)CC2(/C=C/c2ccccc2)C(=O)NC2CCCC2)cc1 (stereo not drawn)
(2) O=C(Nc1ccccc1)C1CC(=O)n2ncnc2N1 (stereo not drawn)
(3) O=S(=O)(NCCN1CCCC1)c1ccc(C(F)(F)F)cc1
(4) COc1ccccc1NC(=O)c1cc2ccccc2o1
(5) Cc1ccc(C(=O)O)cc1-n1c(=O)n(Cc2ccccc2)c(=O)c2[nH]cnc21
(6) O=C(Nc1sc2c(c1-c1nc3ccccc3[nH]1)CCCC2)C1CC1
Compound | 1 | 2 | 3 | 4 | 5 | 6
Rango-impB inh | 0.3% | u | 0.2% | 3.5% | -2.9% | 4.2%
miR-21 reporter | 2% | 1% | -1% | -63% | 0% | -6%
Rango dissoc inh | 2% | 18% | 1% | 7% | 8% | -11%
GLA inh pH 4.5 | -15 | -7 | x | 0 | x | 7

(7) CCN(CC)CCNC(=O)c1ccc(NC(=O)c2ccc(COc3ccccc3)cc2)cc1
(8) COc1cccc(CNC(=O)COc2cccc(-n3cnnn3)c2)c1
(9) CC(C)OC(=O)c1cccc(NC(=O)CSc2nnc(N)s2)c1
(10) CCOC(=O)C1CCN(c2c(NCc3ccc(C(=O)NC4CCCC4)cc3)c(=O)c2=O)CC1
(11) CSCCC1NC(=O)N(CC(=O)Nc2ccc(Br)cc2Br)C1=O (stereo not drawn)
(12) Cc1cccc(-n2cc[nH]c2=S)c1C
Compound | 7 | 8 | 9 | 10 | 11 | 12
Rango-impB inh | -1.9% | -0.1% | -0.4% | -2.9% | -1.1% | -2.2%
miR-21 reporter | -18% | x | -3% | 0% | -1% | -1%
Rango dissoc inh | -2% | -6% | 1% | -2% | 17% | 4%
GLA inh pH 4.5 | x | x | -5 | 11 | -27 | -1

(13) COC(=O)c1ccc(CNC(=O)CN(CCC(C)C)S(=O)(=O)c2ccc3c(c2)OCCO3)cc1
(14) O=C(COC(=O)CCC(=O)c1ccc(F)cc1)Nc1cccc(S(=O)(=O)N2CCCC2)c1
(15) COc1cc[n+]([O-])cc1[N+](=O)[O-]
(16) Cc1ccc(S(=O)(=O)CC(=O)N2CCOCC2)cc1
(17) CC(=O)n1cc(C(C[N+](=O)[O-])SCCN)c2ccccc21 (stereo not drawn)
(18) CCCC1(C(=O)OCC)NC(c2ccco2)C2C(=O)N(C)C(=O)C21 (stereo not drawn)
Compound | 13 | 14 | 15 | 16 | 17 | 18
Rango-impB inh | -1.0% | 0.6% | 0.0% | -1.0% | 0.5% | 0.0%
miR-21 reporter | -2% | 3% | x | 1% | u | -1%
Rango dissoc inh | 1% | -13% | -10% | -12% | -21% | 2%
GLA inh pH 4.5 | -11 | 2 | x | -3 | -2 | 5

(19) Cc1ccc(C(=O)Nc2nnc(-c3ccncc3)s2)o1
(20) Nc1nc2c(nc(Br)n2[C@@H]2O[C@@H]3COP(=O)(O)O[C@H]3[C@H]2O)c(=O)[nH]1
(21) CCN1CCN(CCNC(=O)C2CCN(Cc3nc(-c4ccc(Cl)cc4)oc3C)CC2)CC1
(22) Cc1cc(C(=O)N/N=C/c2cccn2C)n[nH]1
(23) O=C(NCCCN1CCOCC1)c1ccccc1NS(=O)(=O)c1ccc(F)cc1
(24) Cc1ccccc1OCCCC(=O)Nc1ccc2c(c1)OCO2
Compound | 19 | 20 | 21 | 22 | 23 | 24
Rango-impB inh | 2.9% | 5.8% | x | -3.3% | 3.9% | 1.0%
miR-21 reporter | -11% | x | -7% | -40% | -2% | -26%
Rango dissoc inh | -2% | 16% | x | -6% | -2% | u
GLA inh pH 4.5 | 6 | x | -1 | 2 | -5 | -10

Complete entries, quoted from the list. Order of values: Rango-impB inh, miR-21 reporter, Rango dissoc inh, GLA inh pH 4.5
COc1ccccc1NC(=O)c1cc2ccccc2o1 as listed: 3.5%, -63%, 7%, 0
Cc1cc(C(=O)N/N=C/c2cccn2C)n[nH]1 as listed: -3.3%, -40%, -6%, 2
CCN(CC)CCNC(=O)c1ccc(NC(=O)c2ccc(COc3ccccc3)cc2)cc1 as listed: -1.9%, -18%, -2%, x
Nc1nc2c(nc(Br)n2[C@@H]2O[C@@H]3COP(=O)(O)O[C@H]3[C@H]2O)c(=O)[nH]1 as listed: 5.8%, x, 16%, x

Remaining list, next part.
(25) CCOC(=O)[C@@H]1[C@H]2COc3cc(OC)ccc3[C@@H]2N2C(=O)N(c3cccc(F)c3)C(=O)[C@]12C
(26) Cc1ccc(S(=O)(=O)N2CCN(CCc3ccncc3)CC2)cc1
(27) Cc1cccc(C)c1OCC(O)CNC(C)c1ccccc1 (stereo not drawn)
(28) COc1cccc(N2C(=O)C(O)=C(C(C)=O)C2c2ccc(OC)c(OC)c2)c1 (stereo not drawn)
(29) CC(C(=O)NCc1cccs1)N1CCN(S(=O)(=O)c2ccc3c(c2)OCCCO3)CC1 (stereo not drawn)
(30) O=c1oc(-c2ccccc2NS(=O)(=O)c2ccccc2)nc2ccccc12
Compound | 25 | 26 | 27 | 28 | 29 | 30
Rango-impB inh | -3.2% | 4.6% | 0.9% | -0.5% | -3.4% | 3.4%
miR-21 reporter | 0% | x | 10% | -7% | x | -32%
Rango dissoc inh | 18% | -8% | -1% | -1% | -13% | -2%
GLA inh pH 4.5 | x | x | x | 6 | x | -12

Exported with each value named: part of the list above
28) COc1cccc(N2C(=O)C(O)=C(C(C)=O)C2c2ccc(OC)c(OC)c2)c1 (stereo not drawn)
  Rango-impB inh = -0.5%; miR-21 reporter = -7%; Rango dissoc inh = -1%; GLA inh pH 4.5 = 6

25) CCOC(=O)[C@@H]1[C@H]2COc3cc(OC)ccc3[C@@H]2N2C(=O)N(c3cccc(F)c3)C(=O)[C@]12C
  Rango-impB inh = -3.2%; miR-21 reporter = 0%; Rango dissoc inh = 18%; GLA inh pH 4.5 = x

New compounds follow.
(31) Cc1cc2c(cc1C)N(C(=O)CCl)CCN2C(=O)CCl
(32) CC(C)(C)NC(=O)NC(=O)COC(=O)c1cc[n+]([O-])cc1
(33) COc1cc2c(cc1OC)C(c1cccc(C)c1)CC(=O)N2 (stereo not drawn)
(34) Cc1ccc(-n2nc(C)c(=O)c(-c3ccccc3)c2NC(=O)c2cccs2)cc1
(35) N#CC(C#N)=C1NC2(CCCCC2)Cc2ccccc21
(36) C/C(CC(=O)Nc1c(C)cc(C)cc1C)=N\NC(=O)Cc1ccccc1
Compound | 31 | 32 | 33 | 34 | 35 | 36
Rango-impB inh | -0.1% | -4.4% | -2.0% | 4.4% | 2.7% | 1.2%
miR-21 reporter | x | -1% | -12% | 5% | 3% | -2%
Rango dissoc inh | 2% | 0% | 18% | 18% | -5% | 4%
GLA inh pH 4.5 | x | 4 | 1 | 1 | -6 | x

(list continues)
No.	SMILES	Rango-impB inh	miR-21 reporter	Rango dissoc inh	GLA inh pH 4.5
37	COc1cc(-c2nc3cc(C)ccn3c2NC2CCCCC2)ccc1-c1ccc(C(C)=O)cc1	u	x	-2%	x
38	CC(C)NC(=S)N/N=C/c1ccc(C(C)(C)C)cc1	0.4%	10%	22%	-5
39	O=C(O)CSCNC(=O)C12CC3CC(CC(C3)C1)C2	-4.6%	0%	13%	2
40	O=S(=O)(c1ccc(F)cc1)N1CCN(S(=O)(=O)c2ccc3c(c2)OCCO3)CC1	-1.2%	x	-19%	x
41	O=C(COc1ccccc1)Nc1cccc2c1CCCC2	-0.2%	-5%	-1%	-18
42	COc1ccc(Cl)cc1NC(=O)COC(=O)c1ccc(C)o1	3.3%	x	-3%	x
43	COc1ccc(NC(=O)NC(C)c2ccc3c(c2)OCO3)c(OC)c1 (stereo not drawn)	-3.2%	-4%	1%	x
44	COc1cccc(C(=O)C[n+]2cccc3cc(OC)ccc32)c1	u	x	u	x
45	CCCCOC(=O)c1ccc(NC(=S)NC(=O)c2ccco2)cc1	3.4%	-5%	-2%	x
46	CC(=O)Nc1ccc(NC(=O)CSc2ccc([N+](=O)[O-])cn2)cc1	-0.5%	0%	-9%	-10
47	CC(=O)N1CC(C)Sc2ccc(S(=O)(=O)NC(C)c3ccccc3)cc21 (stereo not drawn)	-1.7%	14%	1%	x
48	CC(=O)N1CCc2cc(Br)cc(S(=O)(=O)N3CCN(c4ccccn4)CC3)c21	-1.4%	-1%	3%	1
49	COc1ccccc1OCC(=O)NNC(=O)Nc1ccccc1	1.4%	x	5%	x
50	Cc1cc(OC(C)C(=O)NCCCn2ccnc2)c2c(C)cc(=O)oc2c1 (stereo not drawn)	-2.0%	0%	26%	x
51	O=C(CN1CCN(C(=O)c2cccc(S(=O)(=O)N3CCCC3)c2)CC1)Nc1ccc(F)cc1	u	x	7%	x
52	O=C(c1ccc(Cl)cc1)c1cccc(O)c1	1.1%	x	-6%	x
53	CCOC(=O)C1CCN(C(=O)c2cc3cc(Br)ccc3oc2=O)CC1	-0.2%	1%	20%	-3
54	CC1=C(C(=O)OCc2ccccc2)C(/C=C/c2ccccc2)NC(=S)N1 (stereo not drawn)	-1.2%	18%	2%	-2
55	COc1cccc(OC)c1C(=O)Nc1sc2c(c1C(N)=O)CCCC2	2.6%	x	-18%	x
56	COc1ccc(C)cc1Nc1cc(C)nc2nc(C)nn12	7.4%	15%	17%	6
57	CN(C(=O)COC(=O)c1cc(=O)[nH]c2ccccc12)c1c(N)n(Cc2ccccc2)c(=O)[nH]c1=O	3.7%	x	8%	x
58	CC(C)(C)NC(=O)CN(Cc1cccs1)C(=O)CN1C(=O)C(=O)c2ccccc21	-0.8%	3%	6%	-5
59	COc1ccc(N(CC(=O)Nc2ccccc2C(=O)N2CCCC2)S(=O)(=O)c2ccccc2)cc1	-1.2%	6%	-10%	x
60	N#Cc1cc2c(nc1SCC1COc3ccccc3O1)CCC2 (stereo not drawn)	-0.2%	-50%	2%	2
61	COc1ccc(CN(C(=S)Nc2ccccc2)C2CC(=O)N(c3ccc(Cl)cc3)C2=O)cc1 (stereo not drawn)	0.5%	-5%	-2%	-4
62	O=C1CN(c2ccc(Cl)cc2)C(=O)CN1NC(=S)Nc1ccc(Cl)cc1	-1.9%	-1%	-3%	-12
63	CC(C)(C)OC1NS(=O)(=O)OCC1NCOC(Cl)(Cl)Cl (stereo not drawn)	-1.2%	-2%	1%	x
64	COc1cc(CN2CCN(C(=O)c3ccccc3F)CC2)cc(OC)c1OC	2.9%	1%	3%	x
65	CC(=O)c1nc2ccccc2n1S(=O)(=O)c1ccc(C)cc1	-1.2%	3%	-18%	7
66	COc1ccc(C)cc1C(=O)CCC(=O)Nc1ccccc1N1CCOCC1	-0.9%	u	17%	-11
67	CCOc1cc(C(=O)NCc2ccc(C)cc2)ccc1OCC(=O)N1CCOCC1	-2.1%	-1%	0%	-3
68	O=C(/C=C/c1ccccc1)OCc1cnc(Cl)s1	-1.6%	-18%	11%	-6
69	COc1ccccc1CNC(=O)c1cn(C)c(=O)c2cc(OC)c(OC)cc12	-0.3%	-1%	-8%	-9
70	CCSc1nc2sc3c(c2c(=O)n1CC)CCC3	2.7%	-7%	1%	x
71	Cc1ccc(S(=O)(=O)Nc2ncc(C(F)(F)F)cc2Cl)cc1	0.0%	5%	-9%	6
72	COC(=O)C(C)(C)ONC(=O)Nc1ccccc1	-0.5%	-5%	2%	-9
73	O=C(CSc1nnc2c3ccccc3c3ccccc3c2n1)Nc1ccccc1	x	-4%	x	-6
74	O=C(/C=C/c1cccc(F)c1)N1CCN(c2ccccn2)CC1	-4.3%	-27%	-3%	-3
75	COc1ccc(N2CCN(CC(=O)Nc3ccc(C)cc3Br)CC2)cc1	-0.5%	x	0%	x
76	Nc1nc(SCc2nnc(SCC(=O)O)n2-c2ccccc2)nc2sc3c(c12)CCCC3	6.9%	-1%	1%	5
77	COc1cc2c(cc1OC)CN(CC(=O)Nc1ccc(C)c(S(=O)(=O)N3CCOCC3)c1)CC2	4.0%	2%	u	x
78	COc1cc(OC)c(N2CC(C(=O)NCCC3=CCCCC3)CC2=O)cc1Cl (stereo not drawn)	5.8%	x	36%	x
79	CC(NC(=O)OCc1ccccc1)C(=O)NCC1CCCO1 (stereo not drawn)	-4.9%	2%	-1%	-17
80	COc1ccc(NC(=O)c2c(-c3c(Cl)cccc3Cl)noc2C)c(OC)c1	-4.6%	10%	u	x
81	CCOc1ccc(-c2noc(=O)[nH]2)cc1	0.4%	-18%	10%	2
82	C/C(=N\NC(=O)c1ccc(NS(=O)(=O)c2cccs2)cc1)c1ccc2c(c1)OCO2	-1.8%	-23%	16%	-6

Screens as filed in PubChem.
